# High-throughput results (PubChem BioAssay)
# Myc binder = binders of human c-Myc, primary screen, biochemical, small molecule microarray, anti-His fluorescence; Myc proto-oncogene protein (Homo sapiens), P01106; His-c-Myc binding; calls only; hit rate 1.5% among 17,000;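 active = spot fluorescence over background with P-value below 7% in all four replicate spots, showing protein binding; compounds were printed on slides so no solution concentration is given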;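 note: score is binary with 100 for all four spots passing and 0 otherwise; about 2 pmol printed per array spot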
# mut p53 SMM = binders of human mutant p53, primary screen, biochemical, small molecule microarray, anti-GST fluorescence; mutant tumor protein p53 (GST-tagged), Homo sapiens; calls only; hit rate 0.4% among 17,000; small molecule microarray binding;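 active = compounds whose four printed spots each glow above background more than chance allows, each with a p-value under 7%; compounds were printed on slides so no solution concentration is given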;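 note: about 2 pmol printed per array spot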
# STAT3 SMM = STAT3 binders, primary screen, biochemical, small molecule microarray, single point, set 2. Signal transducer and activator of transcription 3 (Homo sapiens), P40763. His-STAT3 binding, anti-His fluorescence. calls only. hit rate 0.2% among 17,000. AID 624138, 2012;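 active = compounds whose four printed spots each show fluorescence over background unusually high for their array block, chance value under 7%; compounds were printed on slides so no solution concentration is given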;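 note: about 2 pmol printed per array spot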
# Target sequence (P40763 whole entry, looked up): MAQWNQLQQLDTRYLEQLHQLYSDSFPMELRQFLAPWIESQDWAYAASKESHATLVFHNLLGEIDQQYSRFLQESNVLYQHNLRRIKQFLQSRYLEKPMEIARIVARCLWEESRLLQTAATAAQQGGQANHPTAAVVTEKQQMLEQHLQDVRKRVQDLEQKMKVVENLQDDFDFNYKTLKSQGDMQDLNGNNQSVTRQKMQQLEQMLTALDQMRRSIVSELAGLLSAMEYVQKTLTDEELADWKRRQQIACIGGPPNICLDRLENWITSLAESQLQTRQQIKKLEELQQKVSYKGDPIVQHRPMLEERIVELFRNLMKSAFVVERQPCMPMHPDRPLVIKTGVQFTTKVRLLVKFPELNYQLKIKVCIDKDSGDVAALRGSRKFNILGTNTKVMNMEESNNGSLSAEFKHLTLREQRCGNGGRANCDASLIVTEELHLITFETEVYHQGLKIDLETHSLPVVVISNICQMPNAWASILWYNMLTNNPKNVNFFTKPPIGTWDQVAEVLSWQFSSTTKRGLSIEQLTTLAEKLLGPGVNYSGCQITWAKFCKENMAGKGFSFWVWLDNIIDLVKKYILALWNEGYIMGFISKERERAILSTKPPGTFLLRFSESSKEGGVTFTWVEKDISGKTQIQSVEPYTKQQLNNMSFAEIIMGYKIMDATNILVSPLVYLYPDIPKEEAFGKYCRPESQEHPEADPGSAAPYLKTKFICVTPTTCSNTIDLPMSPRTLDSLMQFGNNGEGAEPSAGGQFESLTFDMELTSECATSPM
# ID4 binder = binders of human ID4 protein, primary screen, biochemical, small molecule microarray, single point. DNA-binding protein inhibitor ID-4 (Homo sapiens), P47928. Flag-ID4 binding, fluorescence F/B. calls only. hit rate 1.2% among 31,000;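 active = spot signal over background at p below 0.07 in all four prints; compounds were printed on slides so no solution concentration is given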;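 note: a binder raises fluorescence above local background on the spot; about 2 pmol printed per array spot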
# Target sequence (P47928 whole entry, looked up): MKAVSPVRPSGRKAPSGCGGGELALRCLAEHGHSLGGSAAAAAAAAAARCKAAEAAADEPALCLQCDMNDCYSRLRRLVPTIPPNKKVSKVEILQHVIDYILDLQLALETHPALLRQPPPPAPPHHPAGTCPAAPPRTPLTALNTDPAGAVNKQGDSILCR
# Calls only; i = inactive; x = no result given; + = active, no number.
smiles | Myc binder | mut p53 SMM | STAT3 SMM | ID4 binder
CC(C)NC(=O)N(C)C[C@@H]1Oc2ncc(C#CCN(C)C)cc2C(=O)N([C@H](C)CO)C[C@@H]1C | i | i | i | i
COc1ccccc1NC(=O)Cn1nc(-c2cccc([N+](=O)[O-])c2)c2ccccc2c1=O | i | i | i | i
C[C@H](CO)N1C[C@H](C)[C@H](CN(C)C(=O)Cc2ccccc2)OCCCC[C@H](C)Oc2ccc(NS(C)(=O)=O)cc2C1=O | i | i | i | i
CC(C)NC(=O)N(C)C[C@H]1OCCCC[C@H](C)Oc2ccc(NC(=O)Cc3ccccc3)cc2C(=O)N([C@@H](C)CO)C[C@H]1C | i | i | i | i
COc1ccccc1NC(=O)CSc1ncn(-c2ccccc2)n1 | i | i | i | i
CNC[C@@H]1Oc2ccc(NC(=O)CCC(F)(F)F)cc2C(=O)N([C@@H](C)CO)C[C@@H]1C | i | i | i | i
CC(C)NC(=O)N(C)C[C@@H]1Oc2ccc(NC(=O)C3CC3)cc2C(=O)N([C@@H](C)CO)C[C@@H]1C | i | i | i | i
C[C@H]1CN([C@@H](C)CO)C(=O)CCCn2cc(nn2)CO[C@H]1CN(C)C(=O)C1CC1 | i | i | i | i
Cc1ccc(C)c(NC(=O)C(C)n2nc(C)c([N+](=O)[O-])c2C)c1 (stereo not drawn) | i | i | i | i
C=C1C(=O)O[C@@H]2/C=C(/C)CC/C=C(/C=O)C[C@@H](OC(=O)CC(C)C)C12 (stereo partly drawn) | i | i | i | x
CNC[C@@H]1Oc2ccc(NC(=O)CCCN(C)C)cc2C(=O)N([C@@H](C)CO)C[C@@H]1C | i | i | i | i
O=C(CN1C(=O)C2C3C=CC(C4CC34)C2C1=O)Nc1ccc(Oc2ccccc2)cc1 (stereo not drawn) | i | i | i | i
FC(F)(F)c1cc(CO[C@H]2CCCN[C@H]2c2ccccc2)cc(C(F)(F)F)c1 | i | i | i | i
COC(=O)CCCCCCC(=O)Nc1ccc(C2OC(CSc3ccccn3)CC(c3ccccc3)O2)cc1 (stereo not drawn) | i | i | i | i
O=C(CC1(O)C(=O)N(Cc2ccc(Cl)cc2)c2ccc(Cl)cc21)c1ccc2c(c1)OCCO2 (stereo not drawn) | i | i | i | i
CNC[C@H]1Oc2ccc(NC(=O)c3ccncc3)cc2CC(=O)N([C@@H](C)CO)C[C@@H]1C | i | i | i | i
CNC[C@H]1Oc2c(NS(=O)(=O)c3cn(C)cn3)cccc2C(=O)N([C@@H](C)CO)C[C@@H]1C | i | i | i | i
COc1c(CO)c(O)cc2c1C(=O)c1ccccc1C2=O | i | i | i | x
C[C@@H]1CN([C@@H](C)CO)C(=O)c2cccc(NS(=O)(=O)c3cn(C)cn3)c2O[C@H]1CN(C)Cc1ccc2c(c1)OCO2 | i | i | i | i
COc1ccc(NC(=O)N(C)C[C@H]2Oc3c(NS(=O)(=O)c4cccs4)cccc3C(=O)N([C@H](C)CO)C[C@@H]2C)cc1 | i | i | i | i
COc1ccc(NC(=O)CCCN2C(=O)c3ccccc3C2=O)c(OC)c1 | i | i | i | i
CC(C)NC(=O)Nc1ccc2c(c1)C(=O)N([C@@H](C)CO)C[C@@H](C)[C@@H](CN(C)S(=O)(=O)c1ccccc1)OCCCC[C@@H](C)O2 | + | i | + | i
C[C@@H]1CN([C@H](C)CO)C(=O)Cc2cc(N(C)C)ccc2O[C@H]1CN(C)C(=O)Nc1ccccc1 | i | i | i | i
COc1cccc2c1C(c1ccc3c(c1O)C(=O)CC(C)C3O)OC2=O (stereo not drawn) | i | i | i | i
C[C@H]1CN([C@@H](C)CO)C(=O)c2cccc(N(C)C)c2O[C@H]1CN(C)Cc1ccc(C(F)(F)F)cc1 | i | i | i | i

# Grouped by structure: the compounds so far with a CF3 group (three)
smiles | Myc binder | mut p53 SMM | STAT3 SMM | ID4 binder
CNC[C@@H]1Oc2ccc(NC(=O)CCC(F)(F)F)cc2C(=O)N([C@@H](C)CO)C[C@@H]1C | i | i | i | i
FC(F)(F)c1cc(CO[C@H]2CCCN[C@H]2c2ccccc2)cc(C(F)(F)F)c1 | i | i | i | i
C[C@H]1CN([C@@H](C)CO)C(=O)c2cccc(N(C)C)c2O[C@H]1CN(C)Cc1ccc(C(F)(F)F)cc1 | i | i | i | i

# Going on with the list.
smiles | Myc binder | mut p53 SMM | STAT3 SMM | ID4 binder
O=C(NCCCO)c1nc2ccccc2s1 | i | i | i | i
CC1=COC(O[C@@H]2O[C@H](CO)[C@@H](O)[C@H](O)[C@H]2O)C2C1CC(O)C2CO (stereo partly drawn) | i | i | i | i
C[C@H](CO)N1C[C@H](C)[C@H](CN(C)C(=O)C2CC2)OCc2cn(nn2)CCCC1=O | i | i | i | i
C[C@H](CO)N1C[C@H](C)[C@H](CN(C)Cc2ccc(Oc3ccccc3)cc2)Oc2c(NC(=O)Nc3cccc4ccccc34)cccc2C1=O | i | i | i | x
CS(=O)(=O)N(CC(=O)Nc1ccc(F)c(F)c1)c1ccccc1F | i | i | i | i
C[C@@H]1CCCCO[C@H](CN(C)C(=O)CCC(F)(F)F)[C@H](C)CN([C@@H](C)CO)C(=O)c2cc(NC(=O)CCC(F)(F)F)ccc2O1 | i | i | i | i
CNC[C@@H]1OCCCC[C@@H](C)Oc2ccc(NS(=O)(=O)c3ccccc3)cc2C(=O)N([C@H](C)CO)C[C@H]1C | i | i | i | i
Cc1noc(C)c1NC(=O)Nc1ccc2c(c1)CC(=O)N([C@@H](C)CO)C[C@H](C)[C@H](CN(C)C(=O)Nc1cccc3ccccc13)O2 | i | i | i | i
CC(=O)O[C@H]1[C@H](Oc2cc(O)cc(O)c2C(=O)c2cccc(O)c2)O[C@H](CO)[C@@H](OC(=O)c2ccccc2)[C@@H]1O | i | i | i | x
Cc1noc(C)c1S(=O)(=O)N(C)C[C@H]1Oc2ccc(NS(C)(=O)=O)cc2CC(=O)N([C@@H](C)CO)C[C@H]1C | i | i | i | i
C[C@H](CO)N1C[C@H](C)[C@H](CN(C)C(=O)NC2CCCCC2)Oc2c(NC(=O)NC3CCCCC3)cccc2C1=O | i | i | i | i
C[C@H](CO)N1C[C@H](C)[C@@H](CN(C)S(=O)(=O)c2cccs2)Oc2ccc(NC(=O)Nc3ccc4c(c3)OCO4)cc2C1=O | i | i | i | i
Cn1c(SCC(=O)c2ccc(F)cc2)nnc1-c1cccnc1 | i | i | i | i
C[C@@H]1CN([C@@H](C)CO)C(=O)c2cccc(NC(=O)C3CCOCC3)c2O[C@H]1CN(C)Cc1ccncc1 | i | i | i | i
C[C@H](CO)N1C[C@H](C)[C@@H](CN(C)C(=O)Nc2ccc(F)cc2)Oc2ccc(NS(=O)(=O)c3ccc(Cl)cc3)cc2CC1=O | i | i | i | i
COC(=O)[C@@]1(CCC(=O)OC(C)(C)C)N=C(c2ccc(OCCCO)cc2)O[C@H]1c1ccccc1CN=[N+]=[N-] | i | i | i | i
C[C@@H]1CN([C@@H](C)CO)C(=O)c2cc(NS(=O)(=O)c3ccccc3)ccc2O[C@@H](C)CCCCO[C@H]1CN(C)Cc1ccncc1 | i | i | i | i
COc1ccc(OC)c(S(=O)(=O)NCC2CCCO2)c1 (stereo not drawn) | i | i | i | i
C[C@@H]1CN([C@@H](C)CO)C(=O)c2cccc(NS(=O)(=O)c3ccccc3)c2O[C@@H]1CN(C)C(=O)Nc1ccc(C(F)(F)F)cc1 | i | i | i | i
C[C@H](CO)N1C[C@H](C)[C@@H](CN(C)C(=O)NC2CCCCC2)Oc2ccc(NS(=O)(=O)c3ccccc3)cc2C1=O | i | i | i | i
Cc1noc(C)c1NC(=O)N(C)C[C@@H]1Oc2ccc(NS(=O)(=O)c3cccs3)cc2C(=O)N([C@H](C)CO)C[C@H]1C | i | i | i | i
O=C(CSc1nnc(-c2ccccc2O)n1-c1ccccc1)Nc1ccc(N2CCOCC2)cc1 | i | i | i | i
C[C@H](CO)N1C[C@H](C)[C@H](CN(C)C(=O)Nc2ccc(F)cc2)Oc2ncc(C#CCN(C)C)cc2C1=O | i | i | i | i
C[C@@H]1CCCCO[C@@H](CN(C)Cc2ccc(C(=O)O)cc2)[C@H](C)CN([C@H](C)CO)C(=O)c2cc(NS(C)(=O)=O)ccc2O1 | i | i | i | x
O=C(COc1ccccc1Cl)Nc1cccc(NC(=O)c2ccco2)c1 | i | i | i | i

# Next results.
smiles | Myc binder | mut p53 SMM | STAT3 SMM | ID4 binder
C[C@H]1CCCCO[C@H](CN(C)C(=O)CCC(F)(F)F)[C@@H](C)CN([C@@H](C)CO)C(=O)c2cc(NC(=O)CCC(F)(F)F)ccc2O1 | i | i | i | i
C[C@H](CO)N1C[C@H](C)[C@H](CN(C)Cc2ccc3c(c2)OCO3)Oc2ccc(NC(=O)Nc3ccc4c(c3)OCO4)cc2CC1=O | i | i | i | x
C[C@H](CO)N1C[C@H](C)[C@@H](CN(C)Cc2ccc(C(=O)O)cc2)Oc2ccc(NC(=O)Cc3cn(C)c4ccccc34)cc2CC1=O | i | i | i | i
CCN1CCOC(CC(=O)Nc2ccc3c(c2)OCCO3)C1=O (stereo not drawn) | i | i | i | i
O=C(NCc1ccc(F)cc1)[C@H]1C[C@H]2C(=O)N[C@@H](Cc3ccccc3)C(=O)N2[C@H]1c1cccc(OCCO)c1 | i | i | i | +
C[C@H](CO)N1C[C@H](C)[C@H](CN(C)C)Oc2ccc(NC(=O)C3CC3)cc2C1=O | i | i | i | i
O=C(OCc1ccc(-c2cccc(Cl)c2Cl)o1)c1cccnc1 | i | i | i | i
C[C@H]1CCCCO[C@H](CN(C)C(=O)Nc2ccccc2)[C@@H](C)CN([C@@H](C)CO)C(=O)c2cc(NC(=O)Cc3ccccc3)ccc2O1 | i | i | i | i
COc1ccc(CN(C)C[C@@H]2Oc3c(NC(=O)Nc4ccc(OC)cc4)cccc3C(=O)N([C@H](C)CO)C[C@H]2C)cc1 | i | i | i | i
C[C@H](CO)N1C[C@H](C)[C@H](CN(C)Cc2ccc(C(=O)O)cc2)Oc2c(NC(=O)Nc3ccc(F)cc3)cccc2C1=O | i | i | i | i
COC(=O)N(C)C[C@@H]1OCc2cnnn2CCCC(=O)N([C@H](C)CO)C[C@@H]1C | i | i | i | i
Cc1noc(C)c1NC(=O)N(C)C[C@H]1Oc2ccc(NC(=O)NC(C)C)cc2CC(=O)N([C@@H](C)CO)C[C@@H]1C | i | i | i | i
C=CC(C)(O)CC/C=C(\C)C(=O)OCC1CCC2C(C(=O)O)=COC(OC3OC(CO)C(O)C(O)C3O)C12 (stereo not drawn) | i | i | i | i
C[C@H]1CN([C@@H](C)CO)C(=O)CCCn2cc(nn2)CO[C@@H]1CN(C)C(=O)C1CC1 | i | i | i | i
C[C@H](CO)N1C[C@H](C)[C@H](CN(C)C(=O)CCCN(C)C)OCCCC[C@H](C)Oc2ccc(NS(=O)(=O)c3cn(C)cn3)cc2C1=O | i | i | i | i
C[C@@H]1CCCCO[C@@H](CN(C)C(=O)CCC(F)(F)F)[C@@H](C)CN([C@H](C)CO)C(=O)c2cc(NC(=O)C3CCCCC3)ccc2O1 | i | i | i | x
CNC[C@H]1Oc2ccc(NS(=O)(=O)c3cccs3)cc2CC(=O)N([C@H](C)CO)C[C@H]1C | i | i | i | i
OC(CNC1CCCC1)Cn1c2ccccc2c2ccccc21 (stereo not drawn) | i | i | i | i
CO[C@H]1O[C@H](CO)[C@@H](OC(=O)Nc2cccc(F)c2)[C@H](OC(=O)Nc2ccc3c(c2)OCO3)[C@H]1OC(=O)Nc1ccc2c(c1)OCO2 | i | i | i | i
C[C@@H]1CN([C@@H](C)CO)C(=O)c2cc(NC(=O)Cc3ccccc3)ccc2O[C@@H](C)CCCCO[C@H]1CN(C)C(=O)Nc1ccccc1 | i | i | i | i
C[C@H](CO)N1C[C@H](C)[C@@H](CN(C)C(=O)NC2CCCCC2)Oc2c(NC(=O)Nc3ccc(C(F)(F)F)cc3)cccc2C1=O | + | i | i | i
C[C@@H]1O[C@@H](O[C@@H]2[C@@H](O)[C@H](OC(=O)[C@]34CCC(C)(C)CC3C3=CCC5[C@@]6(C)CC[C@H](OC7OC(CO)C(OC8OCC(O)C(O)C8O)C(O)C7O)C(C)(C)C6CC[C@@]5(C)[C@]3(C)CC4O)O[C@H]2CO)[C@H](O)[C@H](O)[C@H]1O[C@H]1OC[C@](O)(CO)[C@H]1O (stereo partly drawn) | i | i | i | i
C[C@@H]1CCCCO[C@@H](CN(C)C)[C@H](C)CN([C@H](C)CO)C(=O)c2cc(NC(=O)c3ccncc3)ccc2O1 | i | i | i | i
C[C@@H]1CN([C@H](C)CO)C(=O)c2cc(NC(=O)C3CC3)ccc2O[C@H]1CN(C)Cc1ccncc1 | i | i | i | i

# Structures above containing a nitro group on carbon, in the order listed:
smiles | Myc binder | mut p53 SMM | STAT3 SMM | ID4 binder
COc1ccccc1NC(=O)Cn1nc(-c2cccc([N+](=O)[O-])c2)c2ccccc2c1=O | i | i | i | i
Cc1ccc(C)c(NC(=O)C(C)n2nc(C)c([N+](=O)[O-])c2C)c1 (stereo not drawn) | i | i | i | i

# This is a subset. The share of hits here may be higher or lower than overall.
